Beta cell apopt: blocks beta cell apoptosis. 0.8% of 300,000 active. AID 435005. protection from apoptosis, % (test concentration not listed). INS-1E cytokine-induced death, ATP luminescence, 48 h; percent of positive-control rescue, neutral wells zero;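 active = all replicates at 75% or more, or half of them and the mean; inconclusive = half reach 75% but not the mean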;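 also: 0% = cytokine-treated negative control wells and 100% = positive control rescue; higher means more ATP so stronger rescue from cytokine killing; wells of about 40 µL received 100 nL stock; the first replicate is given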
RanGTP-Impb inh: disruptors of Ran-importin-beta complex formation – biochemical, FRET, CFP-Ran, YFP-importin-beta, homogeneous, primary screen; cell-free CFP-Ran/YFP-importin-beta FRET ratio; inhibition, % (test concentration not listed); 1.1% of 300,000 active;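 active = most replicates above 15%; inconclusive = exactly half above 15%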;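 also: 0% = DMSO wells and 100% = Ran loaded with GDP instead of GTP; wells of about 40 µL received 100 nL stock; the first replicate is given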
A1 inh: inhibitors of the anti-apoptotic protein A1, read as caspase activation; MEF A1-2A-BIM cells, Caspase-Glo 3/7 luminescence, 3 h; percent of clofoctol response, vehicle zero; caspase activation, % (no concentration beside the values); 0.066% of 330,000 active; AID 2462;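 active = over half of replicate activation scores above 10%, or exactly half above 10 with the replicate mean above 10; inconclusive = replicate mean below 10 yet half the replicates above 10; inactive = over half of replicates below 10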;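 also: wells of about 30 µL received 50 nL stock; many hits fall short of the cut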
Calb FLC: affects C. albicans growth with fluconazole; C. albicans CaCi-2 (fluconazole-resistant clinical isolate) + fluconazole, Alamar Blue growth, 48 h; growth inhibition, % (concentration not given with the values); 0.57% of 300,000 active;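 active = most replicates above 75%; inconclusive = exactly half above 75%; inactive = most below 75%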;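 also: all wells also contain fluconazole at 8 µg/ml as a sub-toxic cotreatment; 0% = median of DMSO wells and 100% = median of geldanamycin control wells; wells of about 8 µL received 7.5 nL stock; the first replicate is given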
AF4-AF9 inh: inhibitors of human MLL-AF4/AF9 interaction | AlphaScreen, biotin-AF4 peptide binding to FLAG-AF9 | inhibition, % at 10 µM | 0.47% of 350,000 active | P42568 | AID 651704;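 active = every replicate reaching a set inhibition limit, whatever the replicate mean, cut at about 25% in these data; inconclusive = mean inhibition reaches that limit but some replicates miss it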;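 also: 0% = plate neutral control median and 100% = total signal loss; the record names both 10 and 1 µM as test concentration; the first replicate is given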
Target sequence (P42568 whole entry, looked up): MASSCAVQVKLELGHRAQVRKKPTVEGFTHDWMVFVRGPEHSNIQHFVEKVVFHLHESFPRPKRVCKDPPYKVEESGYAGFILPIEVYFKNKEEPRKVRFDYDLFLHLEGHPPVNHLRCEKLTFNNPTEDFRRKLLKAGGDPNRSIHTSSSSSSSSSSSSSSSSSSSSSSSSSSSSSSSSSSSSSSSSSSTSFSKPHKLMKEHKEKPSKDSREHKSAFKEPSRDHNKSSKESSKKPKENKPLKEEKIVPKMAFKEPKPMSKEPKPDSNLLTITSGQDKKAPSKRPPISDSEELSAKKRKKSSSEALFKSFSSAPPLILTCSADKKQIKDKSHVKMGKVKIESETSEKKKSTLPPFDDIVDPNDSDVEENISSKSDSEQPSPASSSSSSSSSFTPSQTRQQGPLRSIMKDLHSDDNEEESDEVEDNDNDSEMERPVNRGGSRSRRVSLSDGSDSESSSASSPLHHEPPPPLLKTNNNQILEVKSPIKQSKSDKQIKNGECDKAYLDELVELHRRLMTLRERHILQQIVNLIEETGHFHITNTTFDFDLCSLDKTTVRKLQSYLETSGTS
Ecoli rRNA inh: inhibitors of bacterial rRNA selective over humanized ribosomes. AID 720706. 1.6% of 350,000 active. E. coli WT GFP vs humanized-ribosome RFP mutants, fluorescence, 24 h; hits give low values; DMSO median 0, no signal -100. GFP signal change (wild-type ribosome), % (test concentration not listed);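 active = significant combined selectivity score with lowered wild-type GFP, culture density cut under 30%, mutant RFP and density less affected; inactive = any of these conditions unmet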; also: one replicate is shown; some compounds called inactive have numbers as strong as hits
T cruzi repl: blocks replication of Trypanosoma cruzi | T. cruzi beta-gal in NIH3T3, luminescence, 90 h | inhibition, % (test concentration not listed) | 1.4% of 300,000 active | AID 1885;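 active = mean inhibition across valid replicates above about 55%, limit read from the data; inconclusive = mean below that limit but half or more replicates reach it; inactive = mean below it, under half of replicates reach it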;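 also: signal also drops with host cell toxicity which is not excluded here; 0% = plate median of DMSO wells and 100% = zero luminescence signal; higher percent means less beta-gal luminescence so fewer parasites; stock transfer was 50 nL into about 50 µL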
Vif TR-FRET: inhibitors of Vif binding to APOBEC3G peptide, primary screen, biochemical, TR-FRET, GST-Vif 1-94, biotin-A3G peptide, dose response retest (AID 1117319); TR-FRET GST-Vif / biotin-A3G peptide binding; higher % means a stronger effect; test concentration not given here; strong numbers were not always called active; one-dose inhibition, %; IC50 in µM for titrated hits; 0.57% of 260,000 active;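 active = above the screen mean plus three standard deviations and confirmed in dose response; inconclusive = results disagree or hit not tested in dose response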;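 also: Vif residues 1-94 fused to GST binding biotinylated APOBEC3G peptide 110-148; 0% = full assay without inhibitor and 100% = GST in place of GST-Vif; retest series ran down from 100 µM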
Ecoli rRNA inh OD600: second read-out of Ecoli rRNA inh, no call of its own (marks repeat the call); OD600 change, %; measured here: OD600 growth;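 optical density of the mix in the first replicate; 0 = DMSO median and -100 = no signal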
Ecoli rRNA inh RFP: recorded beside Ecoli rRNA inh, whose call it bears; RFP signal change, %; measured here: RFP humanized mutant strains;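 first replicate; 0 = DMSO median and -100 = no signal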
* hit, by the source's call; ? = inconclusive; nt = not tested or not shown; & = joins results of further samples. This is a subset; the hit share may differ from the screen's.

SMILES	Beta cell apopt	RanGTP-Impb inh	A1 inh	Calb FLC	AF4-AF9 inh	Ecoli rRNA inh	Ecoli rRNA inh OD600	Ecoli rRNA inh RFP	T cruzi repl	Vif TR-FRET
CC(C)=CCc1cc([C@@H]2COc3c(ccc4c3C=CC(C)(C)O4)C2)c(O)cc1O	15	2.3	0.9	31	19	nt	nt	nt	51	nt
Cn1cc(CN2CCCC(CO)C2)c(-c2ccc(Oc3ccccc3)cc2)n1 (stereo not given)	-2	-1.5	1.0	7	2.1	2	1	-1.1	-8	-2%
O=C(Nc1ccc(C(=O)NCCCN2CCN(c3ccc(F)cc3)CC2)cc1)C1=CSCCO1	0	4.7	-0.7	-3	3.0	0	8	-1.5	25	nt
COC(=O)c1ccccc1NC(=O)c1cc(-c2ccco2)on1	-1	5.8	0.2	15	-0.1	14	18	1.0	-5	nt
CC(C)(C)C(=O)C1=C(O)C(=O)N(Cc2ccccc2)C1c1ccccc1Cl (stereo not given)	0	-2.3	0.0	35	-2.0	9	7	1.1	?	nt
Cc1cc(C)n(C(=O)CCCCCCCC(=O)n2nc(C)cc2C)n1	-7	-2.7	0.6	-3	nt	nt	nt	nt	7	2%
Cc1ccc(-c2csc(N3CCN(S(=O)(=O)c4ccc5c(c4)NC(=O)CO5)CC3)n2)cc1	17	-3.6	0.5	-6	-14	6	2	3.3	10	-9%
CC(=O)NCCc1nc2cc(NC(=O)Nc3ccccc3)ccc2n1C	-3	-1.7	-3.0	-7	2.1	3	8	20	1	-2%
CC(=O)C(Sc1nnnn1-c1ccc(O)cc1)c1ccccc1 (stereo not given)	-1	2.0	0.1	-7	-8.0	-18	-28	-1.3	-9	-1%
CCCc1cc(=O)[nH]c(SCC(=O)N2N=C(c3ccc(Cl)cc3)CC2c2ccco2)n1 (stereo not given)	-10	0.5	-0.3	10	-5.4	-15	-16	-8.5	13	-4%
N#CC1=C(N)OC2=C(C(=O)CC(c3ccccc3)C2)C1c1ccoc1 (stereo not given)	-8	4.5	0.5	-2	nt	nt	nt	nt	2	?
CN(Cc1cccs1)S(=O)(=O)c1cccs1	-2	6.0	0.6	0	nt	nt	nt	nt	2	-5%
COc1ccc(-c2cc(-c3ccccc3)c(C#N)c(=S)[nH]2)cc1	-1	-0.7	0.0	-19	-2.0	22	-2	2.6	-9	-89%
CC(=O)n1cc([C@H]2C=C(C(=O)N3CCOCC3)O[C@@H](OCc3ccc(CO)cc3)C2)c2ccccc21	-4	-1.4	0.2	-4	-1.3&0.8	5	17	6.5	5	nt
Cc1ccc(CN2C(=O)CCC2(C)C(=O)NCc2cccnc2)cc1 (stereo not given)	-4	0.9	-0.2	1	nt	nt	nt	nt	-1	-2%
Cc1ccc(NC(=S)NCCc2ccc(S(N)(=O)=O)cc2)c(C)c1	-3	5.3	0.4	7	nt	-2	3	-9.1	1	nt
O=C(COc1cccc(NC(=O)c2ccccc2)c1)c1ccc(F)cc1	-5	-2.2	0.1	30	5.7	6	15	-0.4	-7	-8%
C=CCN(Cc1nc(-c2ccc(OC)c(OC)c2)oc1C)C1CCS(=O)(=O)C1 (stereo not given)	-8	-3.6	-0.2	8	0.5	1	-2	-1.8	-5	nt
CC(=O)Nc1ccc(OCC(=O)NCc2ccccc2)cc1	3	1.0	-0.1	?	0.4	6	2	-0.3	1	-7%
[O-]/C(=C(\C(=S)Nc1ccc(SC(F)F)cc1)[n+]1ccccc1)c1cc(Cl)ccc1Cl	1	3.9	0.9	-8	9.6	-11	-9	1.1	21	4%
COc1ccc(OC)c(N(CC(=O)N2CCCCC2)S(=O)(=O)c2ccc(OC)c(OC)c2)c1	4	-0.2	1.2	3	nt	nt	nt	nt	-4	2%
Cc1nnc(NC(=O)c2cccc(S(=O)(=O)N3CCCC3)c2)s1	2	7.9	0.5	-1	1.0	-1	2	-1.8	-20	-4%
CC1CCCC(C)N1C(=O)COC(=O)C12CC3CC(CC(Cl)(C3)C1)C2 (stereo not given)	-3	nt	-0.1	nt	-3.4	3	1	0.7	nt	-1%
COc1ccc(-c2noc3c2-c2nc(C(C)C)sc2CC3)cc1	-9	-5.2	-1.7	-10	nt	nt	nt	nt	3	nt
CCOc1ccc(N(CC(=O)NC(C)(C)C)C(=O)CCC(=O)Nc2nccs2)cc1	-2	-2.2	-0.8	-8	1.3	5	-2	3.8	7	nt

Other results.
SMILES	Beta cell apopt	RanGTP-Impb inh	A1 inh	Calb FLC	AF4-AF9 inh	Ecoli rRNA inh	Ecoli rRNA inh OD600	Ecoli rRNA inh RFP	T cruzi repl	Vif TR-FRET
NC(=S)Nc1cccc2[nH]ncc12	1	-0.8	-0.2	0	-1.4	12	7	0.0	-3	-1%
Cc1cc(SCC(=O)Nc2ccc(O)cc2)n2ncc(-c3ccccc3)c2n1	-7	-0.2	-0.1	3	-2.0	-6	-4	6.9	-16	3%
CCC(=O)Nc1ccccc1C(=O)C(=O)Nc1ccccc1	-3	-6.5	-0.5	-12	-1.0	15	15	0.6	-18	2%
CC(Nc1cc(N2CCN(S(C)(=O)=O)CC2)ccc1[N+](=O)[O-])c1ccccc1 (stereo not given)	17	-3.5	0.7	-3	nt	nt	nt	nt	6	10%
O=C(c1ccc(=O)[nH]c1)N(Cc1ccco1)C1(C(=O)NC2CCCCC2)CCCCC1	-3	1.2	1.8	-36	nt	nt	nt	nt	2	7%
O=C(CSc1nnc2ccc(-c3ccncc3)nn12)c1cccs1	2	-1.8	-0.1	-6	8.8	2	-2	-1.4	-13	nt
CCOc1cnc(C(=O)NNC(=O)C(Br)C(C)C)o1 (stereo not given)	2	-2.0	0.1	25	-2.0	15	17	1.4	-2	4%
COc1ccc(C(=O)CCN2CCN(c3ccc(OC)cc3)CC2)cc1	-2	4.7	1.4	-5	8.9	5	2	-0.1	27	0%
NC(=O)C1CCN(C(=O)CSc2nc3c(c(-c4ccccc4)n2)CCCC3)CC1	3	-0.2	-0.7	3	nt	nt	nt	nt	2	-3%
Oc1ccc(Cl)cc1N=Cc1sc2ccccc2c1Cl	nt	?	1.0	-16	2.0	-24	-30	8.4	-52	27%
CCSc1nc(=O)n(-c2ccccc2)c(C)c1C(C)=O	2	4.5	-0.4	3	nt	nt	nt	nt	-12	5%
O=C(CCc1nnc2ccc(NCc3ccc(Cl)cc3)nn12)NC1CCCCC1	2	-4.4	1.4	-2	0.0	-3	4	5.2	6	-14%
O=C(COc1ccc(Cl)cc1)N1CCN(c2ncccn2)CC1	0	0.2	0.2	-13	nt	nt	nt	nt	0	-1%
Cc1ccc(-c2nc3cc(N)ccc3o2)c(C)c1	0	6.2	-6.5	-7	nt	nt	nt	nt	-14	-3%
Cc1c(C(=O)NCCc2ccccc2)oc2ccc(S(=O)(=O)N3CCC4(CC3)OCCO4)cc12	6	-4.0	0.3	5	nt	nt	nt	nt	16	0%
CC1=CC(C)C2C(=O)N(CCC[N+](C)(C)C)C(=O)C2C1 (stereo not given)	2	?	0.5	-5	nt	nt	nt	nt	-3	-3%&21%
COc1ccc(OC)c(NC(=O)Cn2c(=O)n(CC3CCCO3)c(=O)c3cc(OC)c(OC)cc32)c1 (stereo not given)	0	-3.8	-3.2	0	1.6	6	12	-0.9	-10	nt
N#C/C(C(=O)NCc1ccccc1)=C1/SC(Cc2ccc(Cl)cc2)C(=O)N1c1ccccc1 (stereo not given)	-7	-2.3	0.4	-6	-1.6	9	5	0.2	6	6%
O=C(CSc1nc2[nH]ncc2c(=O)[nH]1)Nc1ccc(Cl)c(Cl)c1	nt	?	-0.7	2	-0.6	-13	-19	-2.3	-10	7%
COc1ccc(NC(=O)COCC(=O)Nc2ccc(C)cc2)cc1	4	-4.3	-0.5	3	0.3	-11	-9	0.4	-2	nt
COc1cccc(/C=C2/SC(=S)N(CCC(=O)N3CCOCC3)C2=O)c1	-59	5.4	-1.2	-1	1.0	-10	-2	-2.3	-23	nt
Cc1ccc(CSCC(N)C(=O)O)cc1 (stereo not given)	-7	2.3	0.3	24	nt	nt	nt	nt	-10	nt
CCc1ccccc1NS(=O)(=O)Cc1ccccc1	-2	3.6	0.4	-42	2.0	-6	14	-3.4	5	nt
CN(C)C(=O)Oc1cccc([N+](C)(C)C)c1	6	0.6	0.2	nt	2.7&0.4	-4&3	10&12	0.5&-0.5	-3	4%&9%
N#Cc1cnn2cc(-c3ncc(C(F)(F)F)cc3Cl)cnc12	-4	1.2	-0.3	39	nt	nt	nt	nt	-16	-1%

More structures follow:
SMILES	Beta cell apopt	RanGTP-Impb inh	A1 inh	Calb FLC	AF4-AF9 inh	Ecoli rRNA inh	Ecoli rRNA inh OD600	Ecoli rRNA inh RFP	T cruzi repl	Vif TR-FRET
C=CCn1c(SCC(=O)NCC(=O)OCC)nnc1-c1ccccn1	0	2.2	0.5	19	nt	nt	nt	nt	-17	?
CCOC(=O)c1c(NC(=O)C(F)(OC)C(F)(F)F)sc2c1CCN(C)C2 (stereo not given)	-3	76*	-0.4	-18	nt	nt	nt	nt	40	-6%
CCc1ccc(NC(=O)c2ccc3c(c2)C(=O)N(Cc2ccco2)C3=O)cc1	-3	-0.1	-0.4	-5	-6.7	-4	3	-2.1	0	?
Cc1ccccc1Nc1nn2c(=O)c3ccccc3nc2s1	3	-1.7	-2.4	8	nt	nt	nt	nt	5	-24%
Cc1ccccc1NC(=O)Cc1nc(CSc2nnc(-c3ccc4c(c3)OCO4)o2)cs1	2	?	0.1	11	nt	nt	nt	nt	31	-3%&-13%
Cc1cc(Cl)ccc1C(=O)C1CCCN(C(=O)CCn2cnnn2)C1 (stereo not given)	-5	?	0.4	8	-0.9	6	3	1.7	-4	1%
COC(=O)C1=CN(Cc2cccs2)C=C(C(=O)OC)C1c1cccc(OC)c1OC	nt	71*	0.4	-8	nt	nt	nt	nt	26	10%
CN(C)C(=O)c1nc2ccc(Cl)cn2c1CN1CCN(c2ncccn2)CC1	1	-3.1	0.3	2	-0.1	10	11	1.0	-5	nt
O=C(NNC(=O)c1ccc(Cl)cc1Cl)c1ccncc1	-4	4.8	-0.3	23	-0.6	13	7	-7.1	-19	nt
CN(C)c1ccc(C(=O)N/N=C/c2ccccn2)cc1	2	0.3	1.3	-5	-6.3	-18	-18	-1.9	-1	nt
O=C(NCc1ccccn1)Nc1cccc(Cl)c1Cl	1	1.9	-0.6	-4	0.7	-1	4	0.9	4	-4%
CC(OC(=O)Cn1cnc2c1c(=O)n(C)c(=O)n2C)C(=O)c1ccccc1 (stereo not given)	-1	0.9	0.3	-8	-14	10	18	-1.8	-3	8%
CC(=O)N1Cc2ccccc2CC1C(=O)O (stereo not given)	5	-0.9	-0.2	6	nt	nt	nt	nt	7	13%
CC(=O)c1ccc(C(=O)NC2CCCN(Cc3ccccc3F)C2)cc1 (stereo not given)	-2	0.0	0.5	5	0.4	6	6	-5.6	-8	3%
O=C(O)c1ccc(OCc2occc2C(=O)O)cc1	-2	0.7	-0.3	3	nt	nt	nt	nt	1	31%
Cc1ccc(C)c(S(=O)(=O)N2CCN(C(=O)Cc3c(F)cccc3Cl)CC2)c1	0	3.8	-0.3	-3	3.4	-11	-20	2.1	20	nt

Assay outcomes as filed in PubChem.
